# Screens as filed in PubChem.
# Arbovirus anti – blocks arbovirus infection. arbovirus infection cell-based antiviral screen. inhibition, % at 10 µM. 0.37% of 200,000 active;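 active = inhibition from about 30%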;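 note: bluetongue infection of BSR cells; cell survival read as ATP light after 72 h; 0% = infected wells without compound and 100% = uninfected wells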
# RecA splice inh – inhibitors of M. tuberculosis RecA intein splicing; 0.75% of 290,000 active; AID 2221; inhibition, %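 (about 9 µM by stock and volumes)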; P9WHJ3; cell-free RecA intein splicing, fluorescence; in the data active = inhibition above about 30%;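 note: 0% = vehicle wells and 100% = reference inhibitor control wells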
# Target sequence (P9WHJ3 whole entry, looked up, canonical isoform): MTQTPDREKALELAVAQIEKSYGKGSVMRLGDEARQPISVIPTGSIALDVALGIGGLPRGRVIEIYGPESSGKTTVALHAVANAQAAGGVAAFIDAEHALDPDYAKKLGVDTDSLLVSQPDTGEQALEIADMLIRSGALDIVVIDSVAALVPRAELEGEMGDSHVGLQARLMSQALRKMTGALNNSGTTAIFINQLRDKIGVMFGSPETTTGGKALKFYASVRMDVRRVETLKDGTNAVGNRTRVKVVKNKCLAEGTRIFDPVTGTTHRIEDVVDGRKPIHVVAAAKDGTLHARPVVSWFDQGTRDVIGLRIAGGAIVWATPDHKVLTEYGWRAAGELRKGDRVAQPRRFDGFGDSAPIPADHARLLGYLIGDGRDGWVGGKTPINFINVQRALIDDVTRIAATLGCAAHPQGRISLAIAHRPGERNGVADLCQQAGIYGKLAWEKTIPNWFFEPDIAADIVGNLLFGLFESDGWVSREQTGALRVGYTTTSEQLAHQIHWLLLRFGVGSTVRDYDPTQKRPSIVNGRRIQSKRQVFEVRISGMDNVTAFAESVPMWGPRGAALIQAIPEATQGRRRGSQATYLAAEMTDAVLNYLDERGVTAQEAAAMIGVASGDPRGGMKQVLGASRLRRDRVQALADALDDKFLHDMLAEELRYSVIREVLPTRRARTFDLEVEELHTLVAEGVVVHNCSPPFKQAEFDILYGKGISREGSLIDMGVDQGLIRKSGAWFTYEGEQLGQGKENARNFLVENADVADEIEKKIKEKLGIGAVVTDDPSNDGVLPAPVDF
# YopH inh – blocks Yersinia enterocolitica YopH tyrosine phosphatase | fluorescence Ex485/Em525 | inhibition, %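 (about 10 µM by stock and volumes)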 | 0.16% of 140,000 active;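 active = inhibition of 50% or more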;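 note: controls were vehicle for no effect and minimum signal wells for full effect; inactives centre near -20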
# Mtb growth – M. tuberculosis H37Rv growth inhibitors, H37Rv strain (AID 1626). M. tuberculosis H37Rv growth inhibition; higher % means a stronger effect. inhibition, % at 10 µM; hits with a dose series show IC50 in µM. 0.95% of 220,000 active;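 active = confirmed in a dose series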;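 note: bacteria incubated seven days before Alamar blue readout; 0% = bacteria only wells and 100% = bacteria with antibiotic wells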
# Mtb bLac sens – beta-lactam sensitization of Mtb H37Rv; 0.27% of 330,000 active; M. tuberculosis H37Rv growth with meropenem, percent inhibition; hits of this screen are not shown here; inhibition, % at 25 µM;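 active = about 74% or more and at least 40 points above the plate without the antibiotic, then above 30% in a dose series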;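 note: growth measured after seven days incubation then overnight dye step; 0% = bacteria only wells and 100% = bacteria with antibiotic; twin plates without the antibiotic show which effects depend on it; some results filed as inactive read as strong as hits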
# Arbovirus anti repeat – further read-out of Arbovirus anti, marked with its call; inhibition, %; measured here: 10K subset replicate screen; many hits read low in the repeat;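 first of two repeat runs on a subset; 0% = infected and 100% = uninfected wells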
# Active calls of the source: *; . = not tested or not shown; & = joins results of further samples. This is a subset; count on the stated rates, not on these rows.
SMILES,Arbovirus anti,RecA splice inh,YopH inh,Mtb growth,Mtb bLac sens,others
CCOC(=O)CSc1nnc(CNC(=O)c2ccco2)n1-c1ccc(F)cc1,5,-1.5,-4,-3%,2,
COc1cccc(CC(NC(C)=O)C(=O)NC2CCN(c3nnnn3-c3ccccc3)CC2)c1OC (stereo unspecified),-2,0.9,.,2%,1,
CCOC(=O)C1(CCc2ccccc2)CCN(C2CCSCC2)CC1,5,1.3,.,-6%,-2,
CC(C)C(=O)Nc1ccc(C(=O)Nc2ccc(S(=O)(=O)N3CCOCC3)cc2)cc1,.,-2.1,.,.,-11,
CCOc1ccccc1N(CC(=O)N1CCOCC1)S(=O)(=O)c1ccccc1,6,-0.1,-14,.,-1,
Cc1csc(NC(=O)c2ccc(S(C)(=O)=O)cc2)n1,0,-1.2,.,-1%,-14,
COC(=O)c1cccc2c1-c1ccccc1/C2=N\NC(N)=O,.,-0.6,.,.,3,
Cc1cccc(-n2c(SCC(=O)N(C)C3CCS(=O)(=O)C3)nc3ccccc3c2=O)c1C (stereo unspecified),.,0.2,.,.,-1,
O=C(Nc1cc(SCCO)cc([N+](=O)[O-])c1)c1ccc(Br)o1,6,-2.1,-17,7%,-3,
COc1ccc(C)cc1NC(=O)CSc1nnc(CC(=O)Nc2ccccc2F)n1C,-2,-6.5,.,6%,-5,
COc1cccc(NC(=S)N2CCC(NC(=O)C3CCCCC3)CC2)c1,.,-4.9,.,.,-2,
CCCCc1c(O)nc2ccccn2c1=O,-8,-3.1,-27,4%,2,
COc1cccc(CNC(=O)C(=O)NCCC2CCCCN2S(=O)(=O)c2ccc(C)cc2)c1 (stereo unspecified),.,-1.3,.,.,-4,
CCCn1c(=O)n(C)c(=O)c2c(SCC(=O)NCc3ccco3)nc(C3CC3)nc21,5,-1.5,-36,-3%,-9,
COc1cc(N/C=C2\CC(=O)NC(C)=C2C#N)cc(OC)c1OC,10,-6.2,.,-2%,-8,
CCOc1ccc2c(=O)c(-c3ccc4c(c3)OCCCO4)c(C)oc2c1,4,-3.2,-13,5%,5,
Cc1nnc(NC(=O)c2ccc3ccccc3n2)s1,3,-0.6,.,43µM*,80,
CCOc1ccc(OCCCCOc2ccccc2C(C)=O)cc1,11,-2.7,-28,23%,39,
O=C(Nc1nc(=O)c2ccccc2s1)c1ccc(Cl)cc1,-18,-3.0,-17,33%,44,
COc1cc2c(cc1OC)C1(CCCC1)CNC2C (stereo unspecified),9,-1.3,-13,-14%,-2,
CC1CC(C)CN(S(=O)(=O)N2CCC(C(=O)NCCc3ccccc3)CC2)C1 (stereo unspecified),.,-1.7,.,.,-3,
COc1ccc(S(=O)(=O)Nc2cccnc2)c(Cl)c1Cl,-7,0.6,.,-6%,5,
CCOc1cc(C2NCc3ccccc3-n3cccc32)ccc1OC (stereo unspecified),.,-0.1,.,.,5,
Cc1ccc(/C=C/c2nc3ccccc3[nH]2)o1,-1,-0.1,.,4%,-4,
COc1ccc(Cn2cccc(NC(=O)Nc3ccc(C#N)cc3)c2=O)cc1,-7,3.1,-29,-5%,3,
# Additional structures.
SMILES,Arbovirus anti,RecA splice inh,YopH inh,Mtb growth,Mtb bLac sens,others
CN(/N=C/c1ccc(Cl)cc1)c1ncc(Cl)cc1C(F)(F)F,.,4.4,.,2%,-2,
CC1C(=O)Nc2ccccc2N1C(=O)c1ccc(O)cc1 (stereo unspecified),.,0.7,.,.,-3,
CCOCCCn1c(SCC(=O)Nc2ccc(NC(C)=O)cc2)nc2ccccc2c1=O,.,-1.3,.,.,7,
Cc1ccccc1NC(=O)CNc1ccccc1N1CCCCC1,10,1.2,-32,-5%,8,
COc1cccc(NC(=S)N(CCCN2CCOCC2)Cc2cn(C)c3ccccc23)c1,-6,0.3,-23,-6%,-6,
Cc1ccc(NC(=O)CS(=O)CC(=O)Nc2ccccc2-c2ccc(C)o2)cc1 (stereo unspecified),.,6.4,.,.,-1,
CC[C@H](C)[C@H](NC(=O)c1ccccc1)C(=O)NC(CC(=O)O)c1ccc(F)cc1 (stereo partly specified),.,-7.5,.,.,3,
O=C(NCc1ccc(F)cc1)C(c1cccs1)N(C(=O)c1csnn1)C1CC1 (stereo unspecified),7,.,0,-6%,-3,
Cc1ccc(S(=O)(=O)NCC(=O)N2CCN(c3ccccc3F)CC2)cc1,3,0.1,-48,-1%,-4,
O[C@@H]1CCCC[C@H]1N1CCC(c2ccccc2)CC1,3&-4,-3.6,10,-1%&-5%,-4,
CCOC(=O)CNc1nc(C(C)(C)C)nc2c1nnn2Cc1ccccc1Cl,5,3.2,-21,9%,-5,Arbovirus anti repeat=6
CC(C)c1ccc(NS(=O)(=O)c2ccc3c(c2)oc(=O)n3C)cc1,.,0.8,.,.,0,
O=C(Nc1ccccc1C(=O)N1CCCCC1)NC1CCCCC1,0,.,.,-6%,-4,
O=C(Nc1cccc(-c2ccc(N3CCOCC3)nn2)c1)c1ccccc1Cl,.,0.5,.,.,2,
Cc1ccc(NC(=O)CN2C(=O)NC(C)(CCc3ccccc3)C2=O)cc1 (stereo unspecified),1,0.7,.,1%,-10,
COc1cccc(OC)c1C(=O)NC(=S)Nc1ccc2c(c1)OCCO2,7,2.8,.,8%,-2,
Cc1cc(C=O)c(C)n1-c1ccc(NC2CCCC2)c([N+](=O)[O-])c1,.,5.0,.,.,0,
Oc1ccccc1C1CC(c2cccs2)=NC(c2ccc(Cl)cc2)N1 (stereo unspecified),-26,-2.8,.,-4%,96,
CC(=O)Nc1ccc(S(=O)(=O)Nc2ccccc2C(=O)N2CCOCC2)cc1,.,2.3,.,.,5,
COc1ccc2oc(C(=O)CCC(=O)O)c(N)c2c1,2,-7.0,.,.,-6,Arbovirus anti repeat=-1
O=C(CSc1nccn1-c1ccccc1)NCc1ccc(F)cc1,-3,0.0,.,-7%,-6,
COC(=O)c1ccc(CSc2nc(C(F)F)cc(C)c2C#N)o1,.,5.5,.,.,5,
CC(C)CCn1cnc2c([nH]c3cccc(Cl)c32)c1=O,-9,.,-46,-5%,-5,
Cc1ccc(NS(=O)(=O)c2c(C(=O)N3CCOCC3)c(C)n(C)c2C)cc1C,.,-0.8,.,.,1,
CCCCN(CCCC)CCCNC(=O)C1CC(c2cc(C(F)(F)F)cc(C(F)(F)F)c2)=NO1 (stereo unspecified),.,1.7,.,-10%,-9,
# New compounds follow
SMILES,Arbovirus anti,RecA splice inh,YopH inh,Mtb growth,Mtb bLac sens,others
Cc1cc(C)n2nc(SCC(=O)NCc3ccco3)nc2n1,4,-1.2,0,-10%,-6,
COc1ccc(C)cc1NS(=O)(=O)c1cccc2nonc12,-3,-0.5,-35,.,0,Arbovirus anti repeat=-2
CN1CCN(/N=C2/C(=O)Nc3ccc([N+](=O)[O-])cc32)CC1,17,15,.,0%,-2,
CSc1ccccc1C(=O)Nc1ccc2c(c1)OCCO2,-6,-2.5,-24,2%,.,
O=C(CN1C(=O)C(=O)c2ccccc21)NC1CCCCC1,-8,6.4,10,-9%,-3,
O=C(N/N=C\C1CC=CCC1)c1ccc(Br)o1 (stereo unspecified),.,-4.8,.,.,-6,
CCCN1C2CCCC1CC(NC(=O)c1ccccc1)C2 (stereo unspecified),2,.,-41,-12%,-7,
O=C(NC1CCCCC1)[C@@H]1CSC2c3ccccc3C(=O)N21 (stereo partly specified),.,-2.3,.,.,-5,
O=C(O)CSc1nccn1-c1cccc(Cl)c1,8,0.3,-29,-14%,-2,
Cn1nc(CC(=O)Nc2ncc(Br)s2)c2ccccc2c1=O,6,-0.3,-34,3%,-1,
Nc1n[nH]c(N)c1N=Nc1ccc(Cl)cc1,2,9.0,8,2%,5,
O=[N+]([O-])c1cccc(-c2cc(C(F)(F)F)n3nc(-c4ccccc4)cc3n2)c1,.,-1.7,.,3%,-5,
CN(CC(=O)NCCc1ccc(S(N)(=O)=O)cc1)S(=O)(=O)/C=C/c1ccccc1,.,-2.3,.,.,0,
O=C(O)/C(=C\c1cccs1)Sc1nnc(-c2ccc(F)cc2)o1,0,0.4,.,-6%,-6,
COc1ccccc1/C=N/N1C(=O)C2C3C=CC(CC3)C2C1=O (stereo unspecified),-11,-2.8,.,-3%,-5,
CC(=O)Nc1cccc(-c2csc(NCc3ccco3)n2)c1,-9,3.1,-33,-10%,19,
Cc1nnc(NC(=O)Cn2nc(C)c3ccccc3c2=O)s1,4,1.4,.,-4%,-2,
CC(C)c1ccc(NC(=S)Nc2ccc(OC(F)(F)F)cc2)cc1,21,-0.8,.,29%,46,
CCN(CC)S(=O)(=O)c1ccc(N(C)Cc2ccc(C(F)(F)F)cc2)nc1,-9,3.6,2,4%,1,
O=C(COC(=O)CN1C(=O)C2CCCCC2C1=O)Nc1cc(S(=O)(=O)N2CCOCC2)ccc1Cl (stereo unspecified),4,-2.5,-31,-2%,-6,
O=C(CCOc1ccccc1)Nc1ccc(Br)cc1,.,-2.5,.,.,2,
Cc1ccc(N(C(=O)c2cnccn2)C(C(=O)NC2CCCCC2)c2ccc(O)cc2)cc1 (stereo unspecified),9,-1.4,.,0%,-8,
CCNc1c(NS(=O)(=O)c2ccc(OC)c(Cl)c2)c(=O)oc2ccccc12,.,2.2,.,.,4,
Brc1ccc(-c2csc(-c3c[nH]c4ccccc34)n2)cc1,-2,6.5,-24,35%,55,
Cc1ccc(NC(=O)c2ccco2)c(NC(=O)Cc2cccs2)c1,7,-0.4,12,-7%,-8,
# (more compounds)
SMILES,Arbovirus anti,RecA splice inh,YopH inh,Mtb growth,Mtb bLac sens,others
CCCCn1c(N)c(N(CC)C(=O)c2cc(S(=O)(=O)N3CCCCCC3)ccc2OC)c(=O)[nH]c1=O,.,2.3,.,.,-5,
COc1ccc(CN2C(=O)C(CC(C)C)Nc3ncnc(N4CCN(c5ccccn5)CC4)c32)cc1 (stereo unspecified),.,-0.8,.,.,81,
Cc1sc(NC(=O)C2CCCCC2C(=O)O)c(C(N)=O)c1C (stereo unspecified),8,-1.9,-13,-4%,-3,
Cc1nnc2n1NC(c1ccc(Cl)cc1)C(C(=O)N(C)C1CCCCC1)S2 (stereo unspecified),4,1.2,-51,0%,12,
COC(=O)c1c(NC(=O)Cc2cccs2)sc(C(=O)N2CCCCC2)c1C,-2,2.8,-29,-1%,0,
COc1cccc(-n2c(SCC(=O)NCCc3ccccc3)nnc2-c2ccoc2C)c1,-7,4.8,-36,6%,8,
O=C(NCc1ccccc1)C1CCCN(S(=O)(=O)c2cccc3nsnc23)C1 (stereo unspecified),.,-0.6,.,.,5,
O=C(O)c1ccc(NC(=O)c2cccs2)cc1,8,-1.9,-17,-2%,0,
CC(=NCCC(c1ccccc1)c1ccccc1)c1c(O)n(C)c(=O)n(C)c1=O,8,-2.6,-16,6%,4,
COc1ccc(C(=O)NCCC2=CCCCC2)cc1,2,-1.9,-19,4%,1,
Cc1ccc(-c2nc(SCC(=O)NCCN3C(=O)CSC3=O)[nH]c2-c2ccc(C)cc2)cc1,1,8.8,-30,.,-3,
COc1ccc(CCNC(=O)c2cc3c(=O)n4ccccc4nc3n(CCCN3CCOCC3)c2=N)cc1OC,.,-7.2,.,.,49,
FC(F)(F)c1cnc(/C=C/Nc2ccccc2Cl)c(Cl)c1,-7,0.9,-17,-1%,-15,
COc1ccccc1C(=O)NCCCn1cc(Br)c(C)n1,7,0.1,-10,5%,-3,
Cc1ccc(NC(=S)N(CCN2CCCCC2)Cc2ccco2)cc1Cl,7,3.1,.,6%,6,
Clc1ccccc1C1=CC(c2ccco2)n2ncnc2N1 (stereo unspecified),.,-71,.,-4%,-5,
O=C(O)c1ccc(NC(=O)c2cccc(N3C(=O)C4C5CCC(C5)C4C3=O)c2)cc1 (stereo unspecified),6,-1.9,-21,-1%,1,

# In the list so far, these have a nitro group on carbon.
SMILES,Arbovirus anti,RecA splice inh,YopH inh,Mtb growth,Mtb bLac sens,others
O=C(Nc1cc(SCCO)cc([N+](=O)[O-])c1)c1ccc(Br)o1,6,-2.1,-17,7%,-3,
Cc1cc(C=O)c(C)n1-c1ccc(NC2CCCC2)c([N+](=O)[O-])c1,.,5.0,.,.,0,
CN1CCN(/N=C2/C(=O)Nc3ccc([N+](=O)[O-])cc32)CC1,17,15,.,0%,-2,
O=[N+]([O-])c1cccc(-c2cc(C(F)(F)F)n3nc(-c4ccccc4)cc3n2)c1,.,-1.7,.,3%,-5,

# Ordered by count of non-hydrogen atoms (lowest first): part of the list above.
SMILES,Arbovirus anti,RecA splice inh,YopH inh,Mtb growth,Mtb bLac sens,others
O=C(O)c1ccc(NC(=O)c2cccs2)cc1,8,-1.9,-17,-2%,0,
Cc1sc(NC(=O)C2CCCCC2C(=O)O)c(C(N)=O)c1C (stereo unspecified),8,-1.9,-13,-4%,-3,
Cc1ccc(NC(=S)N(CCN2CCCCC2)Cc2ccco2)cc1Cl,7,3.1,.,6%,6,
O=C(NCc1ccccc1)C1CCCN(S(=O)(=O)c2cccc3nsnc23)C1 (stereo unspecified),.,-0.6,.,.,5,
O=C(O)c1ccc(NC(=O)c2cccc(N3C(=O)C4C5CCC(C5)C4C3=O)c2)cc1 (stereo unspecified),6,-1.9,-21,-1%,1,
CCCCn1c(N)c(N(CC)C(=O)c2cc(S(=O)(=O)N3CCCCCC3)ccc2OC)c(=O)[nH]c1=O,.,2.3,.,.,-5,
